Compound activity (PubChem)
Mtb hypoxia rep: reduces hypoxia-regulated biosensor signal in M. tuberculosis; M. tuberculosis hypoxia-regulated fluorescent reporter, fluorescence; fluorescence inhibition, % (no concentration beside the values); hit rate 0.1% among 300,000; AID 1159583;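 active means 35 to 45% if threefold the growth effect, above 45% if 1.5-fold the growth effect; inactive means the rest, general growth blockers included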;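 further: wells of about 50 µL received 100 nL stock; 0% = vehicle wells and 100% = reference inhibitor wells; whole bacteria with a GFP reporter of the hypoxia response; strong numbers were not always called active; many hits fall short of the cut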
Sa ugtP lethal: kills S. aureus RN4220 lacking UgtP; S. aureus RN4220 ugtP deletion, OD600 growth, 16 h; some inactives read as strong as hits; growth inhibition, % (test concentration not listed); hit rate 0.54% among 330,000; AID 1259309;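 active means z-score under -3 and OD600 up to 0.15 on both plates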;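 further: plate controls were untreated wells for no effect and antibiotic for full effect; wells of about 80 µL received 100 nL stock; the first replicate is given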
Sa RN4220 lethal: kills Staphylococcus aureus RN4220 | S. aureus RN4220 growth, OD600, 16 h | AID 1259311 | inhibition, % (test concentration not listed) | hit rate 0.33% among 330,000;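 active means z-score of -3 or lower and OD600 up to 0.18 on both plates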;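 further: plate controls were untreated cells for no effect and reference antibiotic for full effect; stock transfer was 100 nL into about 80 µL; one replicate is shown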
BJeLR viability: BJeLR cell viability loss; BJeLR (HRASV12) viability, CellTiter-Glo ATP luminescence, 48 h; reference of the scale not given here; inhibition, % (concentration not given with the values); hit rate 0.17% among 300,000;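 active means replicate mean above 50%; inconclusive means above 50% but judged a plate artefact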;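 further: 50 nL library stock added to about 25 µL; numbers are from one replicate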
Autofluor counter: counter-screen for toxin protease inhibitors: compound fluorescence | compound autofluorescence counterscreen, microsphere flow cytometry; active compounds read high | fluorescence intensity (test concentration not listed) | hit rate 3.1% among 360,000;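 active means at least 3 SD above the mean of all compounds, about 16000 in these data; inconclusive means too few beads counted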;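 further: 100 nL of 1 mM stock went into each well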
PrP UTR inh: inhibition of PrP 5' UTR reporter expression; cell-based PrP 5' UTR mRNA reporter, plate reader; inhibition, % (test concentration not listed); AID 488862; hit rate 0.35% among 340,000;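 active means every replicate at 50% or more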;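 further: 0 = median of the neutral control wells; tested in H4 reporter cells; numbers are from one replicate; inactives centre near -14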
Mtb hypoxia rep growth: second read-out of Mtb hypoxia rep, no call of its own (marks repeat the call); growth inhibition, %; measured here: M. tuberculosis growth (absorbance);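 0% = vehicle and 100% = reference antibiotic; read after six days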
An asterisk follows results filed as active.

`CCOc1ccccc1N1C(=O)c2ccc(S(=O)(=O)c3ccc(C(=O)O)cc3)cc2C1=O` gave Mtb hypoxia rep 1, Sa ugtP lethal 8, Sa RN4220 lethal 0.3, BJeLR viability -5, Autofluor counter 3755, PrP UTR inh -26 and Mtb hypoxia rep growth -3.
Screening CS(=O)(=O)NNC(=O)C1Cc2c(ccc3ccccc23)O1 (stereo not given) returned Mtb hypoxia rep 8, Sa ugtP lethal 2, Sa RN4220 lethal 2.7, BJeLR viability 2, Autofluor counter 3863, PrP UTR inh -11 and Mtb hypoxia rep growth 4.
For CC(CN(C)Cc1ccccc1)OC(=O)c1cccc(F)c1 (stereo not given) the results were Mtb hypoxia rep 10, Sa ugtP lethal 14, Sa RN4220 lethal 6.1, BJeLR viability -6, Autofluor counter 11372, PrP UTR inh 2 and Mtb hypoxia rep growth 7.
`CSCCC(NC(=O)c1cc([N+](=O)[O-])ccc1Cl)C(=O)O` (stereo not given) gave Mtb hypoxia rep 9, Sa ugtP lethal 3, Sa RN4220 lethal 0.9, BJeLR viability 0, Autofluor counter 1980, PrP UTR inh -1 and Mtb hypoxia rep growth 1.
`CCC(=O)N1CCc2cc(S(=O)(=O)NCCCOC)ccc21` gave Sa ugtP lethal 6, Sa RN4220 lethal 1.5, BJeLR viability -6, Autofluor counter 3589 and PrP UTR inh 9.
For CCCc1n[nH]c2c1/C(=N\OCC)CC(C)(C)C2 the results were BJeLR viability 4, Autofluor counter 5534 and PrP UTR inh -10.
Screening CCc1cc2c(=O)c(-c3nc4ccccc4n3C)coc2c(CN2CCC(C)CC2)c1O returned Mtb hypoxia rep 9, Sa ugtP lethal 5, Sa RN4220 lethal -1.2, BJeLR viability 10, Autofluor counter 3383, PrP UTR inh 7 and Mtb hypoxia rep growth 8.
Cc1ccccc1NC(=O)c1cccc(S(=O)(=O)N2CCOCC2)c1 was read as Mtb hypoxia rep 6, Sa ugtP lethal 13, Sa RN4220 lethal 3.9, BJeLR viability -7, Autofluor counter 3855, PrP UTR inh -19 and Mtb hypoxia rep growth 9.
Screening CCN(C(=O)CSc1n[nH]c(-c2ccccc2)n1)c1c(N)n(Cc2ccccc2)c(=O)[nH]c1=O returned Mtb hypoxia rep 5, Sa ugtP lethal -3, Sa RN4220 lethal 5.2, Autofluor counter 2930, PrP UTR inh -2 and Mtb hypoxia rep growth 2.
Screening COc1ccc(C(CNC(=S)NCc2ccccc2)N2CCCC2)cc1 (stereo not given) returned Mtb hypoxia rep 12, Sa ugtP lethal 6, Sa RN4220 lethal 4.1, BJeLR viability 0, Autofluor counter 8452, PrP UTR inh 34 and Mtb hypoxia rep growth 4.
Screening COC(=O)C1=C(c2cccc(OC)c2OC)C[C@@H]2CC[C@H]1N2C(=O)N1CCC(C)CC1 returned BJeLR viability -2, Autofluor counter 4174 and PrP UTR inh -22.
`O=C(N/N=C/c1ccc2c(c1)OCO2)c1cccc(NC(=O)c2ccccc2Cl)c1` gave BJeLR viability 3, Autofluor counter 4313 and PrP UTR inh -17.
CCCC(c1nnnn1CCC(C)C)N1CCC(C(N)=O)CC1 (stereo not given) was read as Sa ugtP lethal -1, Sa RN4220 lethal -0.8, BJeLR viability 0, Autofluor counter 3745 and PrP UTR inh -1.
Screening CCN(C(=O)CSc1nnc(Cc2cccc3ccccc23)n1N)C1CCS(=O)(=O)C1 (stereo not given) returned Mtb hypoxia rep 3, Sa ugtP lethal 2, Sa RN4220 lethal 4.5, BJeLR viability 0, Autofluor counter 2626, PrP UTR inh -16 and Mtb hypoxia rep growth 6.
For Cc1ccnc(NC(=O)CNC(=O)c2ccc(C)s2)c1 the results were Mtb hypoxia rep -9, Sa ugtP lethal 0, Sa RN4220 lethal -3.5, BJeLR viability 3, Autofluor counter inconclusive, PrP UTR inh -22 and Mtb hypoxia rep growth 0.
O=C(OC1CCOC1=O)c1ccc(N2CCCC2)c([N+](=O)[O-])c1 (stereo not given) was read as Mtb hypoxia rep 8, Sa ugtP lethal 5, Sa RN4220 lethal -4.1, BJeLR viability 5, Autofluor counter 4436, PrP UTR inh -11 and Mtb hypoxia rep growth 1.
`COc1cccc(/C=C/C(=O)OCC(=O)c2ccc(S(=O)(=O)N3CCCCC3)cc2)c1OC` gave BJeLR viability -8, Autofluor counter inconclusive and PrP UTR inh -9.
Screening CCc1nnc(NC(=O)C2CCN(S(=O)(=O)c3ccc(C)cc3)CC2)s1 returned Mtb hypoxia rep 8, Sa ugtP lethal 2, Sa RN4220 lethal 0.0, BJeLR viability 6, Autofluor counter 4097, PrP UTR inh -28 and Mtb hypoxia rep growth -4.
For COc1ccc(CNc2ccc(S(N)(=O)=O)cc2)cc1 the results were Mtb hypoxia rep 10, Sa ugtP lethal 15, Sa RN4220 lethal 3.0, BJeLR viability -12, Autofluor counter 2446, PrP UTR inh -10 and Mtb hypoxia rep growth 1.
Screening CCC1(CC)C(=O)N(C)C(=O)NC1=NC returned Mtb hypoxia rep 11, Sa ugtP lethal 9, Sa RN4220 lethal 3.1, BJeLR viability -2, Autofluor counter 4292, PrP UTR inh -12 and Mtb hypoxia rep growth 6.
For COC(=O)c1ccc(C)c(NS(=O)(=O)c2ccc(OC)cc2)c1 the results were Mtb hypoxia rep 6, Sa ugtP lethal -1, Sa RN4220 lethal 12, BJeLR viability 45, Autofluor counter 9906, PrP UTR inh 48 and Mtb hypoxia rep growth 11.
For CC1(CCc2ccccc2)NC(=O)N(Cc2nnc(-c3ccccc3Br)o2)C1=O (stereo not given) the results were Sa ugtP lethal -9, Sa RN4220 lethal 0.7, BJeLR viability 0, Autofluor counter 2925 and PrP UTR inh -12.
For CSc1nnnn1-c1ccc(Cl)cc1 the results were Mtb hypoxia rep 0, Sa ugtP lethal 9, Sa RN4220 lethal 8.2, BJeLR viability -4, Autofluor counter 4079, PrP UTR inh -6 and Mtb hypoxia rep growth -2.
For CC(O)Cc1cn(C(CCCCN)C(=O)N2CCNCC2)nn1 (stereo not given) the results were Mtb hypoxia rep 4, Sa ugtP lethal 3, Sa RN4220 lethal 5.1 and Mtb hypoxia rep growth 4.
For Cn1c(=O)c2c(nc(CN3CCN(C(=O)c4ccco4)CC3)n2CCCc2ccccc2)n(C)c1=O the results were Mtb hypoxia rep 2, Sa ugtP lethal 14, Sa RN4220 lethal 24, BJeLR viability 7, Autofluor counter 4203, PrP UTR inh 3 and Mtb hypoxia rep growth 7.
`CC(C)(C)NC(=O)NC(=O)CSc1ncc(C(F)(F)F)cc1Cl` gave Mtb hypoxia rep 11, Sa ugtP lethal 12, Sa RN4220 lethal 16, BJeLR viability 0, Autofluor counter 8099, PrP UTR inh -15 and Mtb hypoxia rep growth 7.
For COC(=O)C1CCN(C(=O)COC(=O)c2cc(-c3cccs3)nn2-c2ccccc2)CC1 the results were Mtb hypoxia rep 4, Sa ugtP lethal 10, Sa RN4220 lethal 0.5, BJeLR viability 1, Autofluor counter 4790, PrP UTR inh -26 and Mtb hypoxia rep growth -3.
For Cc1ccc(C(=O)NCc2ccncc2)cc1S(=O)(=O)N1CCCCC1 the results were Mtb hypoxia rep 13, Sa ugtP lethal 4, Sa RN4220 lethal 1.1, BJeLR viability 2, Autofluor counter 6447, PrP UTR inh -18 and Mtb hypoxia rep growth 10.
`O=C(c1cccc2c1-c1ccccc1C2=NO)N1CCCCC1` gave Mtb hypoxia rep -6, Sa ugtP lethal -16, Sa RN4220 lethal -5.1 and Mtb hypoxia rep growth 8.
NC(=O)CNC(=O)[C@@H]1CC2(CC(c3ccc(Cl)cc3)=NO2)CN1C(=O)c1ccccc1 (stereo not given in full) was read as BJeLR viability 3, Autofluor counter 2794 and PrP UTR inh -17.
COc1ccc(C2=NOC(C(=O)Nc3c(C)n(C)n(-c4ccccc4)c3=O)C2)cc1OC (stereo not given) was read as Mtb hypoxia rep -1, Sa ugtP lethal -1, Sa RN4220 lethal 3.9, BJeLR viability 2, Autofluor counter 5746, PrP UTR inh -28 and Mtb hypoxia rep growth -7.
`CC(=O)Nc1ccc(N/C=C/C(=O)c2ccco2)cc1` gave Mtb hypoxia rep 3, Sa ugtP lethal -3, Sa RN4220 lethal -17, BJeLR viability -9, Autofluor counter 3295, PrP UTR inh -93 and Mtb hypoxia rep growth 11.
O=C(O)CCCCCn1c(SCC(=O)N2CCCC2)nc2ccsc2c1=O was read as Mtb hypoxia rep 6, Sa ugtP lethal 4, Sa RN4220 lethal 0.9, BJeLR viability -1, Autofluor counter 9576, PrP UTR inh -27 and Mtb hypoxia rep growth 9.
For Cc1ccc(CC(=O)NC2CCSC2=O)cc1 (stereo not given) the results were Mtb hypoxia rep 11, Sa ugtP lethal 6, Sa RN4220 lethal 3.4, BJeLR viability 0, Autofluor counter 1993, PrP UTR inh -17 and Mtb hypoxia rep growth -4.
COc1cc(CNCCc2ccccc2)ccc1OCC(=O)NC(C)(C)C was read as Mtb hypoxia rep 7, Sa ugtP lethal -7, Sa RN4220 lethal 1.4, BJeLR viability 0, Autofluor counter 3028, PrP UTR inh -15 and Mtb hypoxia rep growth 7.
COc1ccc(-c2cn3c(C)c(C(=O)Nc4cccc(C)n4)sc3n2)cc1 was read as Mtb hypoxia rep 2, Sa ugtP lethal -8, Sa RN4220 lethal 6.1, BJeLR viability -11, Autofluor counter 5192, PrP UTR inh -14 and Mtb hypoxia rep growth 6.
`COc1ccc(NC(C)=O)c(C)c1` gave Mtb hypoxia rep -6, Sa ugtP lethal 6, Sa RN4220 lethal 7.6, BJeLR viability -2, Autofluor counter 3481, PrP UTR inh -4 and Mtb hypoxia rep growth -4.
`COc1cc(C(=O)Nc2ccccc2C(=O)Nc2ccccn2)cc(OC)c1OC` gave Mtb hypoxia rep 11, Sa ugtP lethal 4, Sa RN4220 lethal 8.9, BJeLR viability 32, Autofluor counter 4232, PrP UTR inh -12 and Mtb hypoxia rep growth 2.
Screening COc1ccc(/C=C/C(=O)NCc2cccnc2)cc1 returned Mtb hypoxia rep 9, Sa ugtP lethal 0, Sa RN4220 lethal 2.2, BJeLR viability -4, Autofluor counter 2196, PrP UTR inh -6 and Mtb hypoxia rep growth -2.
`CCN(CC)S(=O)(=O)c1ccc(NC(=O)COC(=O)CNS(=O)(=O)/C=C/c2ccccc2)cc1` gave Mtb hypoxia rep 6, Sa ugtP lethal 7, Sa RN4220 lethal 3.0, BJeLR viability 7, Autofluor counter 2022, PrP UTR inh -11 and Mtb hypoxia rep growth 20.
`CCCn1c(=O)c(C(=O)Nc2ccccc2)c(O)c2ccccc21` gave Sa ugtP lethal 21, Sa RN4220 lethal -6.5, BJeLR viability 5, Autofluor counter 2793 and PrP UTR inh -26.
CCN(CC(=O)Nc1c(F)cccc1F)C(=O)c1ccc2c(c1)NC(=O)C(C)S2 (stereo not given) was read as Mtb hypoxia rep 12, Sa ugtP lethal 3, Sa RN4220 lethal 0.8, BJeLR viability -2, Autofluor counter 5933, PrP UTR inh -22 and Mtb hypoxia rep growth 6.
`Cc1cccc(NCc2nc(SCC(N)=O)n[nH]2)c1` gave Mtb hypoxia rep -3, Sa ugtP lethal 6, Sa RN4220 lethal 5.1, BJeLR viability -4, PrP UTR inh -19 and Mtb hypoxia rep growth 9.
C=CCNC(=O)c1c(Cl)nc(C)c([N+](=O)[O-])c1C was read as BJeLR viability -11, Autofluor counter 9099 and PrP UTR inh -13.
COC(=O)c1nnc(-c2ccccc2)nc1OC was read as Sa ugtP lethal -2, Sa RN4220 lethal 5.0, BJeLR viability -10, Autofluor counter 2253 and PrP UTR inh -11.
Screening O=C(NC(c1ccccc1)C1CC1C(=O)O)OCc1ccccc1 (stereo not given) returned Mtb hypoxia rep 10, Sa ugtP lethal 5, Sa RN4220 lethal 6.8 and Mtb hypoxia rep growth 2.
For Cc1[nH]c2ccccc2c1C(=O)C(=O)NCCc1ccc(S(N)(=O)=O)cc1 the results were Mtb hypoxia rep -7, Sa ugtP lethal -1, Sa RN4220 lethal 1.2, BJeLR viability -8, Autofluor counter 7099, PrP UTR inh -20 and Mtb hypoxia rep growth -4.
